# Screening results: PubChem, several laboratories
# PrP UTR inh = inhibition of PrP 5' UTR reporter expression; inhibition, % (no concentration beside the values); 340,000 tested, 0.35% active; cell-based PrP 5' UTR mRNA reporter, plate reader;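 active = every replicate at 50% or more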;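 note: 0 = median of the neutral control wells; tested in H4 reporter cells; numbers are from one replicate; inactives centre near -14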
# Sa ugtP lethal = growth inhibition of S. aureus ugtP deletion strain. S. aureus RN4220 ugtP deletion, OD600 growth, 16 h; some inactives read as strong as hits. growth inhibition, % (no concentration beside the values). 330,000 tested, 0.54% active;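 active = z-score under -3 and OD600 up to 0.15 on both plates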;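 note: plate controls were untreated wells for no effect and antibiotic for full effect; wells of about 80 µL received 100 nL stock; the first replicate is given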
# BJeLR lethal = BJeLR cell viability loss; 300,000 tested, 0.17% active; AID 1554; inhibition, % (no concentration beside the values); BJeLR (HRASV12) viability, CellTiter-Glo ATP luminescence, 48 h; reference of the scale not given here;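 active = replicate mean above 50%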;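 note: 50 nL library stock added to about 25 µL; numbers are from one replicate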
# Autofluor counter = counter-screen for toxin protease inhibitors: compound fluorescence; compound autofluorescence counterscreen, microsphere flow cytometry; hits give high values; fluorescence intensity (no concentration beside the values); 360,000 tested, 3.1% active; AID 624483;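 active = at least 3 SD above the mean of all compounds, about 16000 in these data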;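 note: 100 nL of 1 mM stock went into each well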
# RN4220 kill = S. aureus RN4220 growth inhibition | OD600, 16 h | inhibition, % (no concentration beside the values) | 330,000 tested, 0.33% active | AID 1259311;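 active = z-score of -3 or lower and OD600 up to 0.18 on both plates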;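 note: plate controls were untreated cells for no effect and reference antibiotic for full effect; stock transfer was 100 nL into about 80 µL; one replicate is shown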
# Mtb hypoxia inh = Mtb hypoxia fluorescent reporter inhibition; M. tuberculosis hypoxia-regulated fluorescent reporter, fluorescence; fluorescence inhibition, % (no concentration beside the values); 300,000 tested, 0.1% active;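 active = 35 to 45% if threefold the growth effect, above 45% if 1.5-fold the growth effect; inactive = the rest, general growth blockers included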;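 note: wells of about 50 µL received 100 nL stock; 0% = vehicle wells and 100% = reference inhibitor wells; whole bacteria with a GFP reporter of the hypoxia response; strong numbers were not always called active; many hits fall short of the cut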
# Mtb hypoxia inh growth = further read-out of Mtb hypoxia inh, marked with its call; growth inhibition, %; measured here: M. tuberculosis growth (absorbance);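 0% = vehicle and 100% = reference antibiotic; read after six days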
# Numbers without * were called inactive; · = no result given.
# Fields – PrP UTR inh	Sa ugtP lethal	BJeLR lethal	Autofluor counter	RN4220 kill	Mtb hypoxia inh	Mtb hypoxia inh growth
> COC(=O)c1sc(-c2ccc(Cl)cc2)cc1NC(=O)c1ccccc1C(=O)O
 : -34	0	-4	·	27	11	4
> N#C/C(=C\c1cn(CC(=O)N2CCCC2)c2ccccc12)C(=O)NCc1ccc2c(c1)OCO2
 : -20	6	-7	2488	1.8	2	-14
> O=C(C[N+]12CCC(CC1)C(OC(=O)c1ccccc1)C2)c1ccc([N+](=O)[O-])cc1 (stereo not given)
 : -37	10	-4	3570	2.2	-1	11
> CSC1=NCCN1C(=O)c1c(F)cccc1Cl
 : -19	-3	-2	4378	0.4	·	·
> O=[N+]([O-])c1ccc(NN=Cc2cccnc2)cc1
 : ·	16	·	·	1.3	5	-3
> COC(=O)Nc1cc(C)n(-c2ccccc2)n1
 : 11	7	-4	4376	5.2	-11	-6
> O=c1c2c(-c3ccc(Cl)cc3)csc2ncn1/N=C/c1cccc([N+](=O)[O-])c1O
 : -12	·	0	4342	·	·	·
> COc1ccc(C(=O)C2CCCN(C3Cc4ccccc4C3)C2)cc1OC (stereo not given)
 : -14	6	-8	2790	-0.5	-9	-7
> O=C(c1coc(=O)c2ccccc12)N1CCN(Cc2ccccc2)CC1
 : -8	1	0	4138	-3.9	12	9
> CCN(CC)S(=O)(=O)c1ccc(-c2nnc(SCC(=O)Nc3ccc4c(c3)OCO4)o2)cc1
 : -24	18	-5	7546	6.0	-4	3
> Cc1cc(C(=O)CN2C(=O)C(=O)N(CCC3=CCCCC3)C2=O)c(C)n1C
 : 1	-5	·	8445	1.1	-4	11
> O=C(C1CC1c1ccccc1)N1CCN(c2cccc(Cl)c2)CC1 (stereo not given)
 : 1	1	·	2566	-13	-2	7
> COC(=O)/C=C/c1oc2ccccc2c1C
 : -32	7	3	3401	13	-4	4
> Cc1cnc(C(=O)Nc2ccc(N3CCN(C(=O)OC(C)(C)C)CC3)cc2)cn1
 : -7	1	34	3976	-0.7	·	·
> Nc1ncnc2c1ncn2C1OC(CO)CC1O (stereo not given)
 : ·	-3	·	·	3.9	-5	4
> COC(=O)c1c(NC(=O)c2ccco2)sc2c1CC(C)(C)NC2(C)C
 : -14	-3	5	5199	2.1	-1	2
> COc1ccc(-c2nc(NC(=O)CSc3nnc(C)s3)ns2)cc1
 : -5	-2	14	8342	0.5	2	1
> O=C(CSc1nnc(COc2cccc3cccnc23)o1)N1CCN(C(=O)c2ccco2)CC1
 : -17	7	3	2702	0.4	·	·
> COc1ccc(C(=O)NCCC2=CCCCC2)cc1OC1CCN(C(C)C)CC1
 : -29	-4	5	5958	-2.2	2	2
> C=C(C)c1cccc(C(C)(C)NC(=O)NNC(=O)c2ccccc2O)c1
 : -11	2	2	4249	3.4	4	1
> O=C1CC(c2cccc(F)c2)C2=C(CCCC2=O)N1 (stereo not given)
 : -35	11	8	2354	-0.8	·	·
> O=C(COC(=O)C1CC(O)CN1S(=O)(=O)c1ccc(Cl)cc1)c1ccccc1 (stereo not given)
 : -24	1	-2	2937	4.1	-18	2
> COc1ccc(N2CCN(CC(O)COc3ccc4c(c3)CCC4)CC2)cc1 (stereo not given)
 : -3	7	0	4035	5.0	·	·
> CC(Oc1ccc(-c2nnco2)cc1)C(=O)N1CCOCC1 (stereo not given)
 : 8	1	4	5652	3.8	0	0
> Cc1ccc(N(CC(=O)NC(C)(C)C)C(=O)CNC(=O)c2cccs2)cc1
 : -7	7	3	4667	3.2	1	7
> CCOC(=O)Cn1c(=N)n(CCOc2cccc(C)c2)c2ccccc21
 : 6	-10	·	2768	1.0	·	·
> Cc1ccc(NS(=O)(=O)c2ccc(NC(=O)C3CC3)cc2)cc1C
 : -15	3	-5	5462	4.0	-8	-5
> CN=C1S/C(=C\c2ccc(N3CCOCC3)cc2C)C(=O)N1C
 : -17	2	-2	2602	4.1	14	1
> O=C(CN1C(=O)COc2ccc(Cl)cc21)N1CCCCC1
 : 1	1	0	4243	1.1	10	-3
> CCOc1ccc(S(=O)(=O)NNS(=O)(=O)c2ccc(C)cc2C)cc1
 : -13	4	-4	3560	2.6	13	-1
> CCCOc1ccc(C(=O)c2nc3c(n2O)CCCCC3)cc1
 : -21	-8	1	23225*	18	3	14
> COc1ccc(CCNS(=O)(=O)CCNC(=O)c2ccc3c(c2)OCO3)cc1
 : -17	4	1	6917	1.1	-5	2
> O=C(c1ccccc1)c1c[nH]cc1-c1ccccc1
 : -30	18	1	9277	-1.3	-5	8
> O=C(COC(=O)c1ccc2c(=O)n3c(nc2c1)CCC3)NC1CCS(=O)(=O)C1 (stereo not given)
 : 2	4	0	3332	3.6	-3	-4
> COc1ccc(CNC(=O)C[C@H]2C[C@H](C(=O)N3CCOCC3)[C@@]3(CCC4CCCC4)c4[nH]c5cc(-c6ccco6)ccc5c4CCN3C2=O)cc1OC
 : -17	-14	·	3827	0.9	-4	0
> COc1ccc(C(=O)Nc2nc(C)c(C(=O)N(C)C)s2)cc1OC
 : -32	6	-5	10360	4.4	10	11
> Cc1ccc(S(=O)(=O)NCCc2cc3ccc(C)c(C)c3[nH]c2=O)cc1
 : -22	1	-7	3900	6.7	0	-5
> O=C(CSc1nnc2ccc(-c3ccccc3)nn12)NCC1CCCO1 (stereo not given)
 : -8	1	3	5238	0.1	10	7
> COC(=O)c1cc(C(=O)CC(C)C)c[nH]1
 : -3	6	5	4390	3.3	5	-4
> COc1cccc(NC(=O)C2CCCO2)c1 (stereo not given)
 : -7	4	-1	4410	4.3	16	1

# Among those listed so far, 4 have an NH in an aromatic ring.
# Fields – PrP UTR inh	Sa ugtP lethal	BJeLR lethal	Autofluor counter	RN4220 kill	Mtb hypoxia inh	Mtb hypoxia inh growth
> O=C(c1ccccc1)c1c[nH]cc1-c1ccccc1
 : -30	18	1	9277	-1.3	-5	8
> COc1ccc(CNC(=O)C[C@H]2C[C@H](C(=O)N3CCOCC3)[C@@]3(CCC4CCCC4)c4[nH]c5cc(-c6ccco6)ccc5c4CCN3C2=O)cc1OC
 : -17	-14	·	3827	0.9	-4	0
> Cc1ccc(S(=O)(=O)NCCc2cc3ccc(C)c(C)c3[nH]c2=O)cc1
 : -22	1	-7	3900	6.7	0	-5
> COC(=O)c1cc(C(=O)CC(C)C)c[nH]1
 : -3	6	5	4390	3.3	5	-4

# Additional structures follow:
# Fields – PrP UTR inh	Sa ugtP lethal	BJeLR lethal	Autofluor counter	RN4220 kill	Mtb hypoxia inh	Mtb hypoxia inh growth
> CCOC(=O)Cc1[nH]nc2c1C(C1C=CCCC1)C(C#N)=C(N)O2 (stereo not given)
 : -5	-2	1	2859	0.2	·	·
> CC1Cc2c([nH]c3ccccc23)C(=O)N1 (stereo not given)
 : -20	2	22	3518	5.8	9	10
> COc1ccc(OCCSc2nnc3sc4ccccc4n23)cc1
 : -36	4	-1	9330	-1.3	10	1
> Cc1nonc1C1CCCN1Cc1cn[nH]c1-c1ccc2c(c1)OCO2 (stereo not given)
 : -15	8	2	4068	6.6	-2	2
> CC(C)OCCCn1c(SC(C)C(=O)NC2CC2)nc2ccccc2c1=O (stereo not given)
 : 2	-2	-6	4554	-1.9	-6	-10
> CCOC(=O)C1=CN(Cc2ccco2)S(=O)(=O)N(C)C1c1ccc(F)c(Cl)c1 (stereo not given)
 : 0	-3	·	3508	2.3	-15	-1
> Cc1cccc(NC(=O)CSc2nnnn2C2CCCC2)c1
 : -12	10	-7	3067	1.6	3	-5
> O=C(NC(=S)N1CCCc2ccccc21)c1ccco1
 : -4	7	8	4336	3.7	2	1
> Cc1ccc(CNC(=O)c2cc3c(s2)CN(Cc2ccccc2)C3)cc1
 : 24	1	1	4281	3.0	-4	-4
> CC1CCN(CCc2nc3ccccc3[nH]2)CC1
 : -13	6	-1	3393	1.3	7	-12
> O=C(Nc1nccs1)c1ccc(S(=O)(=O)N2CCCCC2)cc1
 : -6	9	10	5766	4.6	3	1
> CCOc1cc(C=NNC(=O)C(=O)NCc2ccc3c(c2)OCO3)ccc1OCC(=O)N1CCOCC1
 : ·	4	·	·	3.0	4	7
> Cc1ccccc1-n1c(SCC(=O)N2CCN(c3ccccn3)CC2)nnc1N1CCOCC1
 : 0	6	·	3021	5.9	26	7
> Cc1oc(-c2cccc3ccccc23)nc1CN1CCN(c2ncnc3ccccc23)CC1
 : 1	1	1	5084	6.4	4	21
> O=C(c1cn(-c2ccccc2)nc1-c1ccncc1)N1CCCCC1
 : -1	3	0	4043	7.5	8	11
> CCOC(=O)c1ccc(NC(=O)C2(N3C(=O)c4ccccc4C3=O)CCCC2)cc1
 : -7	3	·	4130	2.5	5	12
> CC(C)CC(NC(=O)OC(C)(C)C)c1cn([C@@H](CCC(=O)OC(C)(C)C)C(=O)N2CCN(C(=O)OC(C)(C)C)CC2)nn1 (stereo not given in full)
 : -27	·	8	3877	·	·	·
> Cc1c(Cl)ccc2c1NC(=O)C21NC(CCC(N)=O)[C@H]2C(=O)N(c3ccc(Cl)cc3)C(=O)[C@H]21 (stereo not given in full)
 : -8	-15	0	3208	-3.6	1	1
> O=C(c1ccccc1)N1N=C(c2ccccc2)CC1c1ccccc1 (stereo not given)
 : -4	-14	-6	2889	-1.5	3	-4
> COc1ccc(CNC(=O)CN(Cc2ccccc2)C(=O)CCC(=O)Nc2nccs2)cc1
 : -28	7	-2	5843	-4.7	12	10
> Cc1ccc(S(=O)(=O)NN2C(=O)c3ccccc3NC2c2ccco2)cc1 (stereo not given)
 : -24	4	6	4385	1.8	4	0
> CS(=O)(=O)N1CCN(c2ccc(NC(=O)c3ccc([N+](=O)[O-])o3)cc2)CC1
 : -14	·	-8	4194	·	·	·
> Cc1cccc(NC(=O)CSc2nnc([C@H](C)NC(=O)OC(C)(C)C)o2)c1C
 : -18	6	8	4970	1.0	13	12
> CN(c1ccccc1)S(=O)(=O)c1cccc(C(=O)OCC(=O)Nc2ccc(C(N)=O)cc2)c1
 : -15	-7	·	4639	-2.7	8	6
> COc1ccc(NC(=S)N(CCCN2CCC(C)CC2)Cc2cccs2)cc1
 : -3	2	-9	4552	3.6	-4	2
> c1nc(N2CCCCC2)c2[nH]cnc2n1
 : 2	6	-3	4887	1.3	1	0
> COc1ccc(C2NCc3ccc4c(c3-n3cccc32)OCO4)cc1O (stereo not given)
 : ·	0	10	·	-1.5	·	·
> CNC(=O)C(=O)NCCc1ccc(Cl)cc1
 : -15	-1	1	3152	0.2	·	·
> O=C(c1ccc2ncsc2c1)N1CCN(c2ccc(O)cc2)CC1
 : -20	-7	-4	2900	8.2	10	4
> COc1ccc(OC)c(C2NC(=O)NC(C)=C2C(=O)Nc2ccc(C)cc2C)c1 (stereo not given)
 : -27	2	7	10295	1.7	1	2
> O=C(NCCOc1ccc(Cl)cc1)c1cccc(S(=O)(=O)N2CCCC2)c1
 : 8	3	·	2890	4.1	12	-13
> CC(=NNc1ccc(Cl)c(C(=O)O)c1)c1ccc2c(c1)OCO2
 : ·	8	·	·	-0.1	11	7
> CC(C)C(NC(=O)C12CC3CC(CC(C3)C1)C2)C(=O)N/N=C/C1=C(N2CCOCC2)C(=C\c2ccc([N+](=O)[O-])cc2)/CC1 (stereo not given)
 : -21	·	-5	2264	·	·	·
> COc1ccc(-n2ncc3c2CC(C)(C)CC3NC(=O)c2cnc(C)cn2)cc1 (stereo not given)
 : -21	6	-4	5322	4.5	4	5
> Cc1cc2c(c(C)c1CCO)C(=O)[C@H](C)C2
 : -19	10	·	4167	1.9	·	·
> S=C(NCCc1ccccc1)NN=Cc1c(Cl)cccc1Cl
 : ·	15	·	·	-0.3	-1	-1
> CCNC(=O)CC1C(=O)N(c2ccccc2)C(=O)N1CCc1ccc(OC)c(OC)c1 (stereo not given)
 : -14	-10	-4	22965*	-5.5	-8	1
> CCNS(=O)(=O)c1ccc(CCC(=O)N2CCN(c3ccccc3)CC2)cc1
 : -8	2	12	3285	5.7	8	4
> COc1coc(/C=C/C(=O)O)cc1=O
 : -7	0	-2	1929	0.4	-5	-9
> O=C(COc1cccc2ccccc12)NN=C/C=C/c1ccccc1
 : ·	-10	·	·	-5.1	-10	0
> Cc1nc2scc(C)n2c(=O)c1S(=O)(=O)Nc1ccc(N2CCOCC2)cc1
 : -8	1	6	6216	-0.2	-4	2
> CCN(CC)S(=O)(=O)c1ccc(OC)nc1
 : ·	3	-11	9753	-0.2	6	8
> CCc1nnc(NC(=O)CSc2n[nH]c(-c3ccccc3O)n2)s1
 : -24	0	3	2505	7.0	8	-2
> CCN(c1ccccc1)S(=O)(=O)c1ccc(C(=O)Nc2nnc(CSC)o2)cc1
 : -14	15	7	2901	24	2	10
> CC1(C)Cc2c(C#N)c(N3CCCC3)nc(-c3ccco3)c2CO1
 : -63	6	7	5635	4.0	·	·
